D2 PAM: positive allosteric modulators of human D2 dopamine receptor; P14416; DiscoveRx D2 beta-arrestin cells, luminescence, 90 min; 100% = 57 uM dopamine signal; potentiation, % (concentration not given with the values); hit rate 0.23% among 360,000; AID 624464; active = potentiation of 50% or more; inconclusive = 30% to 50%; inactive = 30% or less;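 note: compound concentration not given in the record; tested on top of an EC20 dose of dopamine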
Target sequence (P14416 whole entry, looked up): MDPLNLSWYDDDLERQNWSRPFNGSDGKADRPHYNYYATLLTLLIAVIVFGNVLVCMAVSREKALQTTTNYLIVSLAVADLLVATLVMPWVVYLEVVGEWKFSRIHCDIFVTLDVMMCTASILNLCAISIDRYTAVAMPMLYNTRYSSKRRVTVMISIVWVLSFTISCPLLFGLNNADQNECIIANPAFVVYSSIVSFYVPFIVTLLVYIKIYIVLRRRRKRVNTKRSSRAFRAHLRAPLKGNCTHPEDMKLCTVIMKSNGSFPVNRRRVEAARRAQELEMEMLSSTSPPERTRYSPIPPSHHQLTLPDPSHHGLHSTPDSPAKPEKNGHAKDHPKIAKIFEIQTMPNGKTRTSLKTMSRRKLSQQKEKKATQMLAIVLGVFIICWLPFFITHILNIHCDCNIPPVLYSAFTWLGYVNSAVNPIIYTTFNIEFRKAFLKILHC
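PathHunter beta-arrestin assay in DiscoveRx D2 cells. Compounds were added with an EC20 of dopamine (50 nM final) for 90 min at 37 deg C. Luminescence was read 1 h after detection reagent, with 57 uM dopamine as the EC100 control.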
gsp antagonist: gsp mutant antagonism. gsp-mutant cells, cAMP HTRF, 30 min; control for the full effect not named in the record. Potency, µM (series often up to 76.9 µM), inactives show at the highest dose activity change, negative = inhibition, hits mostly inhibitors. hit rate 0.4% among 340,000. AID 624288; active = falling curve of any shape with a large fitted effect; inconclusive = falling curve, mostly with a smaller effect; inactive = flat or rising curve; cell line not stated here;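 note: intracellular cAMP measured with PDE inhibitor Ro 20-1724 present during compound exposure; potency is the fitted concentration of half-maximal effect; % is set by controls: 0 for no effect and ±100 for the full control effect; nearly all actives have a fitted effect of over 65% in size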
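G418-selected cells were plated in DMEM/10% FBS for 16-24 h at 37C, then treated with compounds plus the PDE inhibitor […] (300 uM solution added) for 30 min at 37C. Intracellular cAMP was measured by HTRF after 30 min lysis at room temperature.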
ClpP mod: qHTS Assay for Activators of ClpP; Potency, µM (series often up to 57.5 µM), inactives show top-dose activity change, negative = active; purified B. subtilis ClpP, FRET peptide cleavage, 20 min; ATP-dependent Clp protease proteolytic subunit (Bacillus subtilis (strain 168)), P80244; hit rate 1.9% among 340,000; active = well fitted falling curve with a large enough effect; inconclusive = small, poorly fitted or top-dose-only effect; inactive = no such curve, though single readings can be large or run the other way; note: potency is the fitted concentration of half-maximal effect; the source files actives as falling curves though it sought activators and does not explain the sign; nearly all actives have a fitted effect of over 65% in size; many hits overshoot -100%
Target sequence (P80244 whole entry, looked up): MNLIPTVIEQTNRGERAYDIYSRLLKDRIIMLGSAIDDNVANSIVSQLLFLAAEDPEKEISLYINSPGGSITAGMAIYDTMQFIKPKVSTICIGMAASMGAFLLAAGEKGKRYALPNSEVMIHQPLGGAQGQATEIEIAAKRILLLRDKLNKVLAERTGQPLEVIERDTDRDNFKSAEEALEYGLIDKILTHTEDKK
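Buffer: 100 mM Tris/HCl pH8, 100 mM KCl, 0.05% low protease BSA, 2.5% glycerol, 0.01% Tween-20. ClpP 10 microg/mL final; 20 min RT; delta FRET normalized to ADEP and DMSO controls.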
Sfp inh: inhibitors of Bacillus subtilis Sfp phosphopantetheinyl transferase; Q9F4F7; Biochemical Sfp PPTase activity, qHTS; Potency, µM, inactives show max response, negative = inhibition, usual class: inhibitors; hit rate 3.5% among 310,000; active = well fitted inhibition curve with a large enough effect; inconclusive = small, poorly fitted or top-dose-only effect, or another doubt; inactive = no such curve, though single readings can be large or run the other way;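 note: the enzyme is Sfp with the accession as filed and its product quenches rhodamine fluorescence; potency is the fitted concentration of half-maximal effect; 0% = enzyme reaction without inhibitor and -100% = no enzyme wells; top concentration of the series not given in the record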
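Reaction rates are the 30-min fluorescence difference (ex 525, em 598 nm) in wells containing 15 nM Sfp, 5 uM rhodamine-CoA and 12.5 uM BHQ-2-YbbR at pH 7.6 with 10 mM MgCl2.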
TRPV1 potentiator: enhances activation of the human vanilloid receptor TRPV1. Q8NER1. TRPV1-expressing cells, Fluo-8 calcium influx, capsaicin EC20 potentiation; host cell line not named in the record; control for the full effect not named in the record. potentiation, % at 8.33 µM. hit rate 0.02% among 320,000; active means potentiation above 80%; inconclusive means 30% to 80%; inactive means below 30%; note: 0% is about no effect
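Cells expressing TRPV1 were dye-loaded with Fluo-8 and read kinetically: 10 s baseline, 3 min after compound (agonist portion), then 2 min after EC20 capsaicin (allosteric enhancer portion). Calcium-bound dye fluorescence at 480/520 nm.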
Menin MLL FP FL: menin-MLL binding inhibition, fluorescein peptide; Fluorescence polarization, fluorescein-MLL peptide displacement from menin; FP activity change, % at 61.4 µM; 290,000 tested, under 10 active; AID 1766; inconclusive = falling polarisation curve, or a change in total fluorescence; inactive = total fluorescence flat and polarisation flat or rising; no compound was filed as active; the % refers to the polarisation; negative = inhibition;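 note: % of control where 0% means no effect; inhibitors lower the polarisation; unlabelled MLL peptide was the positive control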
gsp agonist: agonists of gsp mutant (McCune-Albright syndrome) | gsp mutant cells, cAMP HTRF, 30 min; control for the full effect not named in the record | Potency, µM (doses to about 76.9 µM), for the others: top-dose activation (cAMP increase), most hits filed as activators | hit rate 0.13% among 340,000; active = well fitted activation curve with a large enough effect; inconclusive = small, poorly fitted or top-dose-only effect, or another doubt; inactive = no such curve, though single readings can be large or run the other way; cell line not stated here;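 note: phosphodiesterase inhibitor Ro 20-1724 added with compounds to block cAMP breakdown; potency is the fitted concentration of half-maximal effect; nearly all actives have a fitted effect of over 60% in size; about a fifth of the inactives were tested at one dose only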
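Cells stably selected in G418 were plated at 2000/well, grown 16-24 hr, then given compounds in DMSO with the PDE inhibitor […] (300 uM solution added) for 30 min at 37C; cAMP was read by HTRF.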
An asterisk follows results filed as active; u = inconclusive; x = no result given; & = joins results of further samples; [ ] = remark or other dose.

SMILES	D2 PAM	gsp antagonist	ClpP mod	Sfp inh	TRPV1 potentiator	Menin MLL FP FL	gsp agonist
Cc1ccccc1-c1nc(CN2CCCC(C(=O)NCCCN3CCOCC3)C2)c(C)o1 (stereo unspecified)	-25	1%	-1.8%	7%	23	-0.1	34%
Cc1c(NC(=O)/C=C/c2cn(-c3ccccc3)nc2-c2ccccc2)c(=O)n(-c2ccccc2)n1C	1	-15%	-2.1%	4%	21	-1.8	4%
Cc1nnc(SCC(=O)N2CCCCC2)n1CC1CCCO1 (stereo unspecified)	-26	4%	-0.1%	18%	3	3.7	-2%
CN(C)CC(C)(C)CNC(=O)C1CCN(Cc2ccccc2O)CC1	-8	-6%	-0.3%	-19%	2	-0.6	-69%[inhibitor]
CC(C)C(=O)NNc1ccc(C(F)(F)F)cn1	-1	11%	x	9%	3	-0.1	15%
CCOC(=O)C1=C(c2ccc(OC)cc2)OC(N)=C(C#N)C1c1cccnc1 (stereo unspecified)	4	-9%	x	13%	-9	1.2	-66%[inhibitor]
O=[N+]([O-])c1ccc2c3n([n+]([O-])c2c1)CCN=C3c1ccc(Cl)cc1	4	-9%	-2.6%	x	20	x	-25%
CCOc1ccc(C(=O)NCc2cccnc2)cc1	10	1%	-1.2%	13%	-4	7.4	0%
CCOC(=O)C1CN(S(=O)(=O)c2ccc(C)cc2)C1	-8	-13%	1.3%	7%	0	1.0	19%
O=C(NC(=S)Nc1cccnc1)c1cc2ccccc2o1	-39	12%	1.2%	18%	-1	1.4	-57%[inhibitor]
Cn1c(SCC(=O)N2CCCC2=O)nc2ccccc2c1=O	-10	30%[activator]	-1.5%	x	x	x	8%[15.4 µM]
CC1CCCC2(C1)NC(=S)c1c(sc3c1CCCC3)N2 (stereo unspecified)	-46	21%	-0.2%	6.3µM*	6	u	4%
Cc1ccc(Cn2c(C)nc3c(c2=O)c2nc4ccccc4nc2n3Cc2ccco2)cc1	-5	2%	u	18%	0	-4.8	-17%
O=C(Nc1ccccc1[N+](=O)[O-])C1(c2ccccc2)CCOCC1	6	-7%	0.8%	11%	4	-6.5	7%[15.4 µM]
CCCn1c(N)c(C(=O)CN2CCN(S(=O)(=O)c3cccs3)CC2)c(=O)[nH]c1=O	18	-2%	0.7%	14%	9	4.8	0%
CC(O)C(NS(=O)(=O)c1ccc2ccccc2c1)C(=O)OCC(=O)Nc1ccccc1OC(F)F (stereo unspecified)	-8	-3%	-8.1%	x	x	x	u
CCOc1cc(C)nc(NCCc2ccc(OC)c(OC)c2)n1	1	-6%	-0.5%	7%	-13	-1.5	-13%
Cc1ccc(C)c(S(=O)(=O)NCc2ccc(C(=O)N3CC(C)OC(C)C3)cc2)c1 (stereo unspecified)	-6	-2%	-2.4%	-1%	-32	0.3	-42%[inhibitor]
COc1ccc(/C(O)=C2/C(=O)C(=O)N(CCN3CCOCC3)C2c2ccc(C)cc2)cc1 (stereo unspecified)	-20	-9%	0.7%	-1%	-20	0.4	13%
Cc1[nH]nc(SCC(=O)NCc2ccccc2)c1[N+](=O)[O-]	-11	-7%	0.7%	-2%	30	-5.5	-6%[15.4 µM]
C[C@@H](NC(=O)c1ncn2c1C(=O)NC[C@@H]2C)c1ccccc1	4	x	2.2%	x	x	x	-78%[inhibitor]
O=C(CSc1nc(O)cc(=O)n1-c1ccccc1)NC1CCCCC1	-1	-4%	-2.9%	12%	8	u	1%
CCOC(=O)N1CCN(Cc2nc3cc(NC(=O)CC(C)C)ccc3n2C)CC1	-5	3%	-2.7%	-4%	22	0.3	-18%
C[C@H](NC(=O)OCc1ccccc1)C(=O)NNC(=O)[C@H](Cc1ccccc1)NC(=O)OC(C)(C)C	-10	u	-0.2%	6%	-24	-0.6	u

Individual results from the list:
C[C@H](NC(=O)OCc1ccccc1)C(=O)NNC(=O)[C@H](Cc1ccccc1)NC(=O)OC(C)(C)C in ClpP mod has -0.2%
Cc1ccc(C)c(S(=O)(=O)NCc2ccc(C(=O)N3CC(C)OC(C)C3)cc2)c1 (stereo unspecified) in Sfp inh has -1%

Other records follow:
SMILES	D2 PAM	gsp antagonist	ClpP mod	Sfp inh	TRPV1 potentiator	Menin MLL FP FL	gsp agonist
COC(=O)c1cc(C(=O)c2ccccc2)n2c(=O)/c(=C\N(C)C)sc12	-7	6%	-1.9%	12%	x	9.0	0%
COCCN1C=C2C(=O)C(C)(OC(=O)CCc3ccccc3)C(=O)C=C2C=C1c1ccc(C#N)cc1 (stereo unspecified)	13	-11%	-0.6%	-4%&0%	-21	-0.5[11.7 µM]	11%
COCCSc1ccccc1C(=O)Nc1ccc(Cl)cc1	-17	-2%	2.0%	u	-15	3.4	-19%
CC1=N/C(=C\c2ccc([N+](=O)[O-])cc2)C(=O)N1c1ccc(F)cc1F	-2	-2%	x	10%	4	-2.6	29%
CCOC(=O)c1cc(-c2ccc(C)o2)n[nH]1	-10	-15%	-0.8%	4%	-1	1.8	12%
COc1ccc(CCNS(=O)(=O)c2ccc3[nH]c(=O)[nH]c3c2)cc1	-5	4%	x	x	x	x	4%
CC(=O)NNc1cc(N2CCOCC2)nc(N2CCOCC2)n1	-7	-9%	-6.7%	u	1	u	-1%
COc1ccc(C(=O)NCC(=O)OCCOc2ccc(Cl)cc2)cc1OC	16	-7%	-3.0%	x	x	x	9%
COc1cc(-c2nn3c(-c4ccco4)nnc3s2)cc(OC)c1OC	x	x	x	-4%	1	2.0	x
Cc1ccc(-n2c(CCC(=O)O)ccc2-c2cccs2)cc1	1	-19%	u	14µM*	0	6.9	-3%
Cc1ccc(S(=O)(=O)N2CCCC2)cc1C(=O)NCc1ccccc1CN1CCCC1	-19	9%	-1.2%	x	6	x	38%
Nn1c(-c2ccccc2)cc(-c2ccccc2)cc1=O	-7	3%	-3.3%	x	-34	x	-14%
COCCn1nnnc1C(c1cc2cc(C)cc(C)c2[nH]c1=O)N1CCN(c2ccccc2F)CC1 (stereo unspecified)	-20	-11%	-20%	13µM*	-27	7.0	u
Cc1c(Cl)c([N+](=O)[O-])nn1CC(=O)N1CCN(Cc2ccccc2)CC1	-10	5%	x	9%	3	1.0	u
Cc1cc(C=C(C#N)C#N)c(C)n1-c1ccccc1	4	15%	0.6%	2%	21	-1.5	28%
Cn1c(=O)c2c(nc(NCc3ccco3)n2CC(O)COc2ccccc2)n(C)c1=O (stereo unspecified)	6	-1%	-3.5%	17%	6	0.9	1%
O=C(NCc1ccccn1)c1nc(Cn2ccc([N+](=O)[O-])n2)no1	-6	10%	x	-26%	3	2.3	-4%[15.4 µM]
CN(C(=O)c1cccc(NC(=O)Cc2ccc(NC(=O)C3CCCN(S(=O)(=O)c4cccc([N+](=O)[O-])c4)C3)cc2)c1)C1CCCC1 (stereo unspecified)	7	-6%	-0.5%	x	x	x	x
CC(=O)c1cccc(N(C(=O)c2csnn2)C(C(=O)NC2CCCC2)c2ccccc2)c1 (stereo unspecified)	1	-7%	x	5%	16	-5.1	3%
COc1cccc(-c2cccc(NC(=O)C3CCN(Cc4cccc(C)n4)CC3)c2)c1	-35	17%	0.7%	18%	4	x	u
FC(F)(F)c1nnc(-c2ccccc2)nc1Oc1ccc(Cl)cc1Cl	9	2%[15.4 µM]	-3.1%	21%	-11	2.3	4%
CN1CCN(C(=O)CN(C2CCCCC2)S(=O)(=O)c2ccccc2)CC1	-13	2%	x	21%	13	4.8	14%[15.4 µM]
CN1CCN(C(=O)c2cc3c(=O)n4ccccc4nc3s2)CC1	-9	14%	x	9%	3	-8.4	13µM*
O=S(=O)(NCc1ccc(Cl)cc1Cl)c1ccc(N2CCOCC2)nc1	-2	5%	x	5%	2	1.8	-16%
NC(=O)c1c(NC(=O)Cn2nc(C(=O)O)c3ccccc3c2=O)sc2c1CCCC2	-5	-13%	-1.7%	-30%	-7	-3.0	-76%[inhibitor]
O=C(Nc1ccc(Cl)cn1)c1cccc2ccccc12	18	13%	1.0%	1%	-13	-4.5	-64%
CN(C(=O)c1cccc(NC(=O)Cc2ccc(NC(=O)C3CCN(C(=O)C4CC4)CC3)cc2)c1)C1CC1	-4	-4%	-0.6%	x	x	x	x
Cc1cccc(Cn2ccc(N)n2)c1	-3	-2%	-1.7%	13%	17	-4.2	12%[15.4 µM]
COc1ccc(OC)c(C(=O)c2coc3ccc(O)c(CN4CCOCC4)c23)c1	0	8%	1.3%	-5%	-1	-0.6	u
CCn1ccnc1CNC(=O)c1ccc(OC2CCN(C(=O)COC)CC2)cc1	-2	3%	-3.0%	-13%	-7	0.5	2%
O=C1NC[C@@H](c2ccccc2)OC(=O)[C@H](Cc2ccc(F)cc2)C/C=C\C[C@H]1CC(=O)N(CCO)Cc1ccccc1	-2	u	-0.2%	x	x	x	x
N#Cc1c(-c2ccccc2F)cc(-c2cccnc2)nc1N	-11	6%	89%	7%	-7	0.4	10%
O=S(=O)(NCc1ccccc1)c1ccc2c(c1)OCCO2	-13	-1%	2.8%	-12%	-1	-1.7	-7%
COc1ccc(N2CCN(C(=O)c3cc(=O)c4cc(Cl)ccc4o3)CC2)cc1	-10	-16%	0.9%	1%	-12	0.0	8%
Cc1ccc(CNC(=O)COC(=O)c2ccc(S(=O)(=O)N3CCOCC3)cc2)cc1	-1	-9%	-1.8%	x	x	x	0%[15.4 µM]
Cc1cccc(Oc2ccccc2NS(=O)(=O)c2ccc(CCC(=O)O)cc2)c1	2	-22%	0.5%	x	1	x	24%
COc1ccc(C(CC(=O)N2CCCCC2)NC(=O)C(F)(F)F)cc1 (stereo unspecified)	-1	12%	x	18%	11	-2.5	-15%[15.4 µM]
Cc1c(Cl)cccc1NC(=O)CSc1ncnc2c1cnn2CCO	-9	4%	-2.1%	-6%	-3	x	u
CCc1c(C#N)c(SCCC(=O)Nc2ccc(C)cc2)nc2c1C(=O)CC(C)(C)C2	-8	-9%	-1.5%	19%	-13	0.0	-46%[inhibitor]
CCc1cc(C(=O)OC)c(NC(=O)CN2CCN(C(=O)C3CCCO3)CC2)s1 (stereo unspecified)	0	-6%	1.9%	17%	-11	x	5%
COc1ccc(N(C(=O)c2cccc([N+](=O)[O-])c2)S(=O)(=O)c2cccs2)cc1	2	14%	x	-9%	25	-2.4	-109%[inhibitor]

High-throughput results from PubChem BioAssay.

The order is random (roughly 5.1% active in at least one column).
